# Marburg entry inh: Marburg virus entry inhibition | actives 1.8% (n = 300,000) | AID 540276 | Potency, µM (top dose mostly 37.8 µM), without a hit: at the top dose activity change, negative = inhibition, usual class: inhibitors | Marburg virus pseudotyped entry inhibition, cell reporter; control for the full effect not named in the record; about a third of the inactives were read at about 46 µM; active = well fitted inhibition curve with a large enough effect; inconclusive = small, poorly fitted or top-dose-only effect, or effect the other way; inactive = flat fitted curve, though single readings scatter; tested in HEK293 cells; about a fifth of its hits are not listed in these tables; also: luciferase read-out
# An asterisk follows results filed as active; ? = inconclusive; & = joins results of further samples; [ ] = remark or other dose. % is scaled to controls: 0 for no effect and ±100 for the full control effect; potency is read from the fitted curve at half-maximal effect. A portion of the library (hit frequency here may not be typical).
SMILES,Marburg entry inh
CCN1C(=S)NC(c2cccc(F)c2)C(C(=O)OC)=C1C (stereo not drawn),?
CCCNC(=O)OC[C@H]1O[C@H](CCO/N=C(\C)CCN2CCCCc3nc(C)c(C)cc32)C=C[C@@H]1Oc1ccc(OC)cc1,-26%[14.2 µM]
COC(=O)c1ccc(CN2C(=O)[C@@]3(CC(C)=CC[C@@H](COc4ccccc4)O3)c3ccccc32)cc1,9%[14.2 µM]
CCNc1c2c(oc(=O)c1N)CCCC2,5%
COc1ccc(COC(=O)N/N=C2/C[C@@H](O)[C@@H](O)[C@@H]3[C@H]4C(=O)N(c5ccc(F)cc5F)C(=O)[C@@H]4CC[C@@H]23)cc1,?
COc1cc([C@@H]2C(C#N)=C(N)Oc3cc(C)n(CCc4ccccc4)c(=O)c32)cc2c1OCO2,-22%
CCN1C(=NCc2ccc(OC)cc2)NC(c2cccc(C(F)(F)F)c2)C(C(=O)OC)=C1C (stereo not drawn),13%&-21%[14.2 µM]
CCN1C(=O)[C@H]2[C@H]3[C@H](O)[C@H](O)C/C(=N/OC[C@@H]4O[C@H](c5ccccc5)C=C[C@@H]4Oc4ccc(OC)cc4)[C@@H]3CC[C@@H]2C1=O,-28%[14.2 µM]
CCCCC#C[C@@H]1C=C[C@H](Oc2ccc(C(=O)OC)cc2)[C@@H](COC(=O)OCC)O1,16%&16%[14.2 µM]
COC(=O)[C@H]1[C@@H](c2cccc(C(F)(F)F)c2)NC(=O)N(Cc2ccccc2)[C@@H]1C,25%[14.2 µM]
CCOC(=O)[C@@H](C)N1[C@H](C)[C@H](c2ccccc2)Oc2cc(Br)ccc2S1(=O)=O,4.4µM*
CCCC[C@@H]1CN2[C@H](c3ccc(Br)cc3)[C@H](C)CC[C@H]2C(=O)O1,4%&4%[14.2 µM]
COC(=O)c1ccc(CN2C(=O)C3(CC(C)=C[C@@H](C)O3)c3c(Br)cccc32)cc1 (stereo partly drawn),?
COc1ccc([C@H]2SCC(=O)Nc3c2c(=O)[nH]n3C2CCCCC2)cc1,0%
CCOC(=O)OC[C@H]1O[C@H](C#Cc2ccc(F)cc2F)C=C[C@H]1OC(=O)OCC,?
CCCNC(=O)OC[C@H]1O[C@H](CCO/N=C2/[C@H]3CCn4c(=O)n(-c5ccccc5)c(=O)n4[C@H]3[C@H](O)[C@@H]3O[C@H]23)C=C[C@@H]1Oc1ccc(OC)cc1,?
COc1cccc([C@@H]2Oc3ccc(OC)cc3/C(=N/OC[C@@H](O)COCc3ccco3)[C@@H]2O)c1,14%[14.2 µM]
C#CCCCON=C1C[C@@H](O)[C@H](O)[C@H]2[C@@H]3C(=O)N(c4ccc(F)cc4F)C(=O)[C@@H]3CC[C@@H]12,-8%[14.2 µM]
C[C@H]1Cc2c(-c3ccccc3)nc3c(c2CO1)CN(C(=O)Nc1cccc(C#N)c1)CC3,-24%&-24%[14.2 µM]
C[C@@H]1C=CCC(=O)N[C@@H](c2ccc3ccccc3c2)[C@H](C)C=CCC(=O)N[C@@H]1c1ccc2ccccc2c1,2.7µM*
CCN1C(=O)[C@H]2[C@H]3[C@H](O)[C@H](O)C/C(=N\OC[C@@H](O)[C@H]4O[C@@H]5OC(C)(C)O[C@@H]5[C@H]4O)[C@@H]3CC[C@H]2C1=O,?
CCn1nc(C(=O)O)c(=O)c2c1CC1=C(C2)OCO1,5%&5%
CCOC(=O)C1=CN(CCC=C(C)C)C(=O)N(C(C)=O)C1c1ccccc1 (stereo not drawn),57%[14.2 µM]
CC(=O)C1=C(C)N(Cc2ccccc2)C(=O)NC1c1cccs1 (stereo not drawn),4%[14.2 µM]
COc1cc2c(cc1OC)CSC1C(=O)N(C)C(SC2)C(=O)N1C,-4%[14.2 µM]
CCOC(=O)Cc1[nH]nc2c1[C@H](c1cc(OC)ccc1OC)C(C#N)=C(N)O2,5%
COC1=C[C@H](C(=O)NCc2ccccc2)[C@@]2(C)Cc3ccccc3[C@@H]2CC1=O,-33%[14.2 µM]
O=C1[C@H]2[C@H]3[C@H](O)[C@H](O)C/C(=N/OC[C@@H](O)COCc4ccco4)[C@@H]3CC[C@@H]2C(=O)N1C[C@@H]1CCCO1,4%[14.2 µM]
NC(=O)CN1C[C@@H](O)CC1=O,1%
OC[C@H]1O[C@H](c2ccccc2)C=C[C@H]1OCc1cccc(Br)c1,-11%[14.2 µM]
CCC[C@@H]1Cc2c(sc3nc(SC)nc(N)c23)CO1,0%[46.1 µM]
CN1c2ccccc2[C@@]2(O)C(=O)[C@@]1(C)[C@H]1Cc3ccccc3[C@H]12,0%[14.2 µM]
CC(=O)[C@]12C[C@@H]3CCN(C(=O)N[C@@H]1c1ccccc1)[C@@]32C,?
COC(=O)C1CCN(c2nc3ccccc3nc2[C@@H](C#N)C(=O)NCCc2ccccc2)CC1,0%
C=CCOC(=O)C1=C(C)OC(N)=C(C#N)[C@H]1c1ccoc1,6%
COc1ccc2[nH]c(C)c(C(=O)CN3C[C@@H](C)O[C@@H](C)C3)c2c1,-1%
C[C@@H]1CC2=CCCC2[C@]2(O1)C(=O)Nc1cccc(Br)c12 (stereo partly drawn),1%[14.2 µM]
C=CC[C@@H]1C=C[C@H](ON=C2c3cc(OC)ccc3O[C@H](c3cccc(OC)c3)[C@@H]2O)[C@H](CO)O1,-5%[14.2 µM]
COC1=CC2C(=O)C(C(c3ccccc3)C2C)C1(C)O (stereo not drawn),1%[14.2 µM]
COC(=O)C1=C(C(=O)OC)[C@@H]2N(Cc3ccccc3)c3ccccc3[C@@]23C[C@@H](C(=O)OC)N(C(=O)Nc2ccccc2F)C3=N1,-13%[14.2 µM]
Cc1[nH]c(C(=O)N2CCCCC2)c(C)c1C(=O)NC1CCCCC1,-3%
COc1ccc(/C(O)=C2/C(=O)C(=O)N(CCCN(C)C)C2c2ccco2)cc1Cl (stereo not drawn),0%
COc1ccc(O[C@H]2C=C[C@@H](c3ccccc3)O[C@H]2CON=C(C)CCN2CCCCc3nc(C)c(C)cc32)cc1,?
C=COC[C@@H]1CN2[C@H](c3ccc(Br)cc3)[C@H](C)CC[C@H]2C(=O)O1,?
CC1=C[C@@H](COCc2ccccc2)O[C@@]2(C1)C(=O)N(CC1CC1)c1ccccc12,1%[14.2 µM]
N#Cc1ccc2c(c1)C[C@]1(c3ccsc3)OC3=C(C(=O)OC4(CCCCC4)C3)[C@H]2O1,?
CCC12C=C(/C=C/c3ccccc3)C(CC)(C1)C(c1ccccc1)CC2=O (stereo not drawn),13%[14.2 µM]
CC(C)CON=C1C[C@@H](O)[C@@H](O)[C@@H]2[C@H]3C(=O)N(Cc4ccccc4)C(=O)[C@@H]3CC[C@@H]12,1%[14.2 µM]
CNC(=O)NC1CCCC(C2=NC(C)=NCC2)C1 (stereo not drawn),5%
O=S1CCCS[C@@H]1c1cccnc1 (stereo partly drawn),-8%

# Reformatted with bars between the fields: twelve of the compounds above
Molecule | Marburg entry inh
COC1=CC2C(=O)C(C(c3ccccc3)C2C)C1(C)O (stereo not drawn) | 1%[14.2 µM]
COC(=O)C1=C(C(=O)OC)[C@@H]2N(Cc3ccccc3)c3ccccc3[C@@]23C[C@@H](C(=O)OC)N(C(=O)Nc2ccccc2F)C3=N1 | -13%[14.2 µM]
Cc1[nH]c(C(=O)N2CCCCC2)c(C)c1C(=O)NC1CCCCC1 | -3%
COc1ccc(/C(O)=C2/C(=O)C(=O)N(CCCN(C)C)C2c2ccco2)cc1Cl (stereo not drawn) | 0%
COc1ccc(O[C@H]2C=C[C@@H](c3ccccc3)O[C@H]2CON=C(C)CCN2CCCCc3nc(C)c(C)cc32)cc1 | ?
C=COC[C@@H]1CN2[C@H](c3ccc(Br)cc3)[C@H](C)CC[C@H]2C(=O)O1 | ?
CC1=C[C@@H](COCc2ccccc2)O[C@@]2(C1)C(=O)N(CC1CC1)c1ccccc12 | 1%[14.2 µM]
N#Cc1ccc2c(c1)C[C@]1(c3ccsc3)OC3=C(C(=O)OC4(CCCCC4)C3)[C@H]2O1 | ?
CCC12C=C(/C=C/c3ccccc3)C(CC)(C1)C(c1ccccc1)CC2=O (stereo not drawn) | 13%[14.2 µM]
CC(C)CON=C1C[C@@H](O)[C@@H](O)[C@@H]2[C@H]3C(=O)N(Cc4ccccc4)C(=O)[C@@H]3CC[C@@H]12 | 1%[14.2 µM]
CNC(=O)NC1CCCC(C2=NC(C)=NCC2)C1 (stereo not drawn) | 5%
O=S1CCCS[C@@H]1c1cccnc1 (stereo partly drawn) | -8%

# The list goes on:
SMILES,Marburg entry inh
O=C(O)CCCCCC[C@@H]1C(=O)NC(=O)N1CC[C@@H](O)C1CCCCC1,4%&4%
CCOC(=O)N[C@](Nc1sc2c(c1C(N)=O)CCCC2)(C(=O)OCC)C(F)(F)F,-5%
COc1ccc([C@H]2C[C@H](c3ccc(C)cc3)Nc3nc(N)nn32)cc1,7%
COC(=O)C1=C(C)N(Cc2ccccc2)C(=NCC2CC2)NC1c1ccc(Br)cc1 (stereo not drawn),-10%[14.2 µM]
COc1ccc(CN(C2CCCC2)S(=O)(=O)c2ccccc2Br)cc1,13µM*
COC1CCCC(c2nc(N)nc(SC)c2C#N)C1 (stereo not drawn),4%
C#CCCCON=C1C[C@@H](O)[C@H](O)[C@H]2[C@@H]3C(=O)N(C4CCCCC4)C(=O)[C@@H]3CC[C@@H]12,43%[14.2 µM]
Cc1ccc(C(=O)[C@H]2[C@H](c3cccs3)NC(=O)N[C@]2(O)C(F)(F)F)cc1,-26%
C=CCOc1ccc(/C(O)=C2\C(=O)C(=O)N(CCCN3CCOCC3)[C@H]2c2ccc(OC)cc2)cc1,15%
CCCCc1nc2c(c3c1C[C@H](C)OC3)CN(C(=O)c1cc(I)ccc1F)CC2,?
N#CC(C#N)[C@@H](c1ccsc1)c1c(-c2ccccc2)[nH][nH]c1=O,2%
CC(C)(C)OC(=O)N1CCC[C@@H]1C(O)(c1ccccc1)c1ccccc1,-13%[14.2 µM]
C=CCN1C(=O)[C@@]2(CC(C)=C[C@@H](COc3ccccc3)O2)c2ccccc21,2%[14.2 µM]
COc1ccc(-c2nc3n(n2)C(=O)C[C@@H](c2ccco2)S3)cc1,10%
Cc1cc(C)n(Cc2cc(C)c(Cn3nc(C)cc3C)cc2C)n1,-4%
CCOC(=O)CCN1C(=O)[C@H]2[C@H]3[C@H](O)[C@H](O)C/C(=N/NC(=O)OCc4ccccc4)[C@@H]3CC[C@@H]2C1=O,29%[14.2 µM]
CCN(CC)CCCN=C1NC(c2cccc(F)c2)C(C(=O)OC)=C(C)N1Cc1ccccc1 (stereo not drawn),?
C#CCCCO/N=C1\C[C@@H](O)[C@@H](O)[C@@H]2[C@@H]3C(=O)N(C(C)(C)C)C(=O)[C@@H]3CC[C@H]12,12%[14.2 µM]
O=C1CCCC=C1[C@@H](O)COCc1ccccc1,3%[14.2 µM]
COc1ccc([C@H]2/C(=C(\O)c3ccccc3)C(=O)C(=O)N2c2ncccn2)cc1OC,1%
O=S(=O)(c1ccc2ccccc2c1)N(C[C@@H](O)CN1CCOCC1)c1ccccc1,19%
CC(C)[C@H]1COc2cc(Br)ccc2S(=O)(=O)N1C(=O)c1ccc(F)cc1F,?
O=C1CCCC2=C1[C@H]1O[C@](CCCCN3C(=O)c4ccccc4C3=O)(Cc3c1ccc1ccccc31)O2,-23%[14.2 µM]
O=C(NC(CC1=CCCCC1)c1ccc2c(c1)OCO2)C(F)(F)F (stereo not drawn),?
CCOC(=O)c1cc2c(=O)n3cccc(C)c3nc2n(CCc2ccccc2)c1=N,9%
Cn1c2c(c(=O)n(C)c1=O)[C@](NC(=O)c1cccs1)(C(F)(F)F)C(=O)N2,14%
O=C1[C@H]2[C@H]3[C@H](O)[C@H](O)C/C(=N/OCc4ccccc4)[C@@H]3CC[C@@H]2C(=O)N1C[C@@H]1CCCO1,6%[14.2 µM]
COC(=O)C/C=C\[C@@H](C)[C@@H](/C=N\OC[C@@H](O)[C@H]1O[C@H]2OC(C)(C)O[C@H]2[C@@H]1O)OC,22%[14.2 µM]
CC(C)=CCN1C(=O)[C@]2(O[C@H](COc3ccccc3)CC3=C2CCC3)c2ccccc21,-5%[14.2 µM]
CC#CCN1C(=O)NC(c2ccccc2)C(C(=O)OCC)=C1c1ccccc1 (stereo not drawn),7%[14.2 µM]
COC1=C[C@H](C(=O)N[C@H]2CCCC[C@H]2NC(C)=O)[C@H](C)[C@@H](c2ccccc2)CC1=O,?
CCOC(=O)OC[C@H]1O[C@H](c2cc(C)cc(C)c2)C=C[C@H]1OC(=O)OCC,2%[14.2 µM]
COc1cc2c(cc1OC)[C@@H]1O[C@](CCCCN3C(=O)c4ccccc4C3=O)(C2)OC2=C1C(=O)CC(C)(C)C2,-9%[14.2 µM]
C=CCOC(=O)N[C@H](C(C(=O)OC)=C(C)NCc1ccccc1)c1ccc(Br)cc1,7%[14.2 µM]
COC(=O)N[C@@H](c1ccc(Cl)cc1)C(C(C)=O)C(=O)OC (stereo partly drawn),13%[14.2 µM]
C[C@H]1C(C(=O)N2CCCC2)=Cc2[nH]c(=O)[nH]c2C=C1c1ccccc1,18%[14.2 µM]
O=C(N/N=C1/C[C@@H](O)[C@@H](O)[C@@H]2[C@@H]3C(=O)N(C[C@@H]4CCCO4)C(=O)[C@H]3CC[C@H]12)OCc1ccccc1,?
COc1ccc(CCn2c(=N)c(C#N)cc3c(=O)n4ccccc4nc32)cc1,-1%
COc1cccc([C@@H]2[C@@H](C)CC[C@@H]3C(=O)NC[C@H](O)CN32)c1,-11%[14.2 µM]
CCCCCCc1cc2cc(OC)c(OC)cc2c2c(C(=O)OC)c(C(=O)OC)c(C(=O)OC)n12,-19%[14.2 µM]
Cc1ccc(CN2CCC=CS2(=O)=O)cc1,?
O=C(C1=C(C(=O)N(C2CCCCC2)C2CCCCC2)CCCC1)N1CCCCC1,-9%
CCOC(=O)OC[C@H]1O[C@H](c2ccccc2)C=C[C@@H]1OC(=O)OCC,?
CCCNC(=O)OC[C@H]1O[C@@H](CCO/N=C2/C[C@@H](O)[C@@H](O)[C@@H]3[C@@H]4C(=O)N(CC)C(=O)[C@H]4CC[C@@H]23)C=C[C@@H]1Oc1ccc(OC)cc1,0%[14.2 µM]

# From PubChem
